Mtb hypoxia inh: inhibitors of hypoxia-regulated fluorescent reporter in Mycobacterium tuberculosis | M. tuberculosis hypoxia-regulated fluorescent reporter, fluorescence | 0.1% of 300,000 active | fluorescence inhibition, % (no concentration beside the values);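 active = 35 to 45% if threefold the growth effect, above 45% if 1.5-fold the growth effect; inactive = the rest, general growth blockers included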;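 also: wells of about 50 µL received 100 nL stock; 0% = vehicle wells and 100% = reference inhibitor wells; whole bacteria with a GFP reporter of the hypoxia response; strong numbers were not always called active; many hits fall short of the cut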
PrP 5UTR inh: suppresses PrP 5' UTR mRNA reporter expression. cell-based PrP 5' UTR mRNA reporter, plate reader. 0.35% of 340,000 active. inhibition, % (concentration not given with the values);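 active = every replicate at 50% or more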;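 also: 0 = median of the neutral control wells; tested in H4 reporter cells; numbers are from one replicate; inactives centre near -14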
Sa RN4220 lethal: S. aureus RN4220 growth inhibition; OD600, 16 h; inhibition, % (test concentration not listed); 0.33% of 330,000 active;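 active = z-score of -3 or lower and OD600 up to 0.18 on both plates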;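 also: plate controls were untreated cells for no effect and reference antibiotic for full effect; stock transfer was 100 nL into about 80 µL; one replicate is shown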
Bead autofluor: flagged as autofluorescent in microsphere protease counterscreen; compound autofluorescence counterscreen, microsphere flow cytometry; hits give high values; fluorescence intensity (concentration not given with the values); 3.1% of 360,000 active;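 active = at least 3 SD above the mean of all compounds, about 16000 in these data; inconclusive = too few beads counted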;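 also: 100 nL of 1 mM stock went into each well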
BJeLR lethal: BJeLR cell viability loss. inhibition, % (concentration not given with the values). BJeLR (HRASV12) viability, CellTiter-Glo ATP luminescence, 48 h; reference of the scale not given here. 0.17% of 300,000 active;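 active = replicate mean above 50%; inconclusive = above 50% but judged a plate artefact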;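 also: 50 nL library stock added to about 25 µL; numbers are from one replicate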
Sa ugtP lethal: growth inhibition of S. aureus ugtP deletion strain | 0.54% of 330,000 active | S. aureus RN4220 ugtP deletion, OD600 growth, 16 h; some inactives read as strong as hits | AID 1259309 | growth inhibition, % (concentration not given with the values);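 active = z-score under -3 and OD600 up to 0.15 on both plates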;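 also: plate controls were untreated wells for no effect and antibiotic for full effect; wells of about 80 µL received 100 nL stock; the first replicate is given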
Mtb hypoxia inh growth: further read-out of Mtb hypoxia inh, marked with its call; growth inhibition, %; measured here: M. tuberculosis growth (absorbance);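 0% = vehicle and 100% = reference antibiotic; read after six days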
The depositor's hits bear a star. Compounds were not picked by outcome; about 4.1% have a hit in one of these screens.

Screening CCOC(=O)c1nnn(-c2ccccc2)c1C returned Mtb hypoxia inh -1, PrP 5UTR inh -31, Sa RN4220 lethal 0.4, Bead autofluor 24310*, BJeLR lethal 3, Sa ugtP lethal 4 and Mtb hypoxia inh growth 0.
Screening CCN(CC)S(=O)(=O)c1ccc(C)c(NC(=O)CNc2cccc(S(=O)(=O)N3CCOCC3)c2)c1 returned Mtb hypoxia inh 0, PrP 5UTR inh -7, Sa RN4220 lethal 0.9, BJeLR lethal 3, Sa ugtP lethal 1 and Mtb hypoxia inh growth 2.
For COCCCNC(=S)N1CCN(Cc2ccc3c(c2)OCO3)CC1 the results were Mtb hypoxia inh 4, PrP 5UTR inh -13, Sa RN4220 lethal 1.7, Bead autofluor 4558, BJeLR lethal -5, Sa ugtP lethal 4 and Mtb hypoxia inh growth 18.
For COc1ccc(CNC(=O)CCCn2nc(C)c([N+](=O)[O-])c2C)cc1OC the results were Mtb hypoxia inh 11, PrP 5UTR inh -18, Sa RN4220 lethal 1.8, Bead autofluor 4185, BJeLR lethal 4, Sa ugtP lethal 10 and Mtb hypoxia inh growth 4.
Screening COCC(=O)N/N=C(\C)CC(=O)Nc1ccccc1C(N)=O returned PrP 5UTR inh -5, Bead autofluor 3494 and BJeLR lethal -9.
Screening Cc1cc(=O)oc2cc(NC(=O)C3CCCC3)ccc12 returned Mtb hypoxia inh 0, PrP 5UTR inh -33, Sa RN4220 lethal 2.7, Bead autofluor 4573, BJeLR lethal 9, Sa ugtP lethal 5 and Mtb hypoxia inh growth 5.
Screening COc1ccc(C)cc1NC(=O)c1cc2ccccc2cc1OCC(=O)NCc1ccco1 returned PrP 5UTR inh 3, Sa RN4220 lethal -11, Bead autofluor 4743, BJeLR lethal 7 and Sa ugtP lethal -5.
Screening COc1cccc(Nc2nnc(SCC(=O)N3CC(=O)Nc4ccccc43)s2)c1 returned Mtb hypoxia inh 7, PrP 5UTR inh -7, Sa RN4220 lethal 34, BJeLR lethal -1, Sa ugtP lethal 4 and Mtb hypoxia inh growth 8.
For Cc1ccc2[nH]c(CNC(=O)c3ccccc3F)cc2c1 the results were Mtb hypoxia inh 7, PrP 5UTR inh -52, Sa RN4220 lethal -1.5, Bead autofluor 4205, BJeLR lethal 9, Sa ugtP lethal 6 and Mtb hypoxia inh growth 5.
Screening O=[N+]([O-])c1ccc(N2CCCC2)c2ncccc12 returned Mtb hypoxia inh 24, PrP 5UTR inh -15, Sa RN4220 lethal 6.4, Bead autofluor 3312, BJeLR lethal -4, Sa ugtP lethal 3 and Mtb hypoxia inh growth -2.
For COc1ccc(-c2noc(-c3ccccc3C(=O)Nc3cccnc3)n2)cc1OC the results were Mtb hypoxia inh -11, PrP 5UTR inh -7, Sa RN4220 lethal 4.4, Bead autofluor 10214, BJeLR lethal -5, Sa ugtP lethal 8 and Mtb hypoxia inh growth 6.
For CCNc1nc(-c2cc3ccccc3o2)cs1 the results were Mtb hypoxia inh -11, PrP 5UTR inh -105, Sa RN4220 lethal 3.0, Bead autofluor 4106, BJeLR lethal 1, Sa ugtP lethal 4 and Mtb hypoxia inh growth -11.
`CC(C)n1cc(/C=N/Nc2ccc(Cl)c(C(=O)O)c2)c2ccccc21` gave PrP 5UTR inh -48, Bead autofluor 3998 and BJeLR lethal -8.
`COc1ccc(S(=O)(=O)N2CCC(O)(c3ccc(Cl)cc3)CC2)cc1` gave Mtb hypoxia inh -4, PrP 5UTR inh -12, Sa RN4220 lethal 0.4, Bead autofluor 9602, BJeLR lethal -10, Sa ugtP lethal -11 and Mtb hypoxia inh growth -1.
Screening CNC(=O)c1cnn(-c2nc(-c3ccc(OC)cc3)cs2)c1C(F)(F)F returned Mtb hypoxia inh -19, PrP 5UTR inh -10, Sa RN4220 lethal 3.1, Bead autofluor 4376, BJeLR lethal 2, Sa ugtP lethal -2 and Mtb hypoxia inh growth -2.
Screening CCCCOc1ccc(NC(=O)Nc2nnc(C)s2)cc1 returned PrP 5UTR inh -24, Bead autofluor 3755 and BJeLR lethal 4.
`O=C(Cn1nc(-c2cccc([N+](=O)[O-])c2)c2ccccc2c1=O)Nc1cccnc1` gave Mtb hypoxia inh 15, PrP 5UTR inh -18, Sa RN4220 lethal 0.1, Bead autofluor 10079, BJeLR lethal 5, Sa ugtP lethal -3 and Mtb hypoxia inh growth 5.
For Cc1ccccc1C(=O)OC1OC(=O)C(Cl)=C1N1CCOCC1 (stereo unspecified) the results were Mtb hypoxia inh 9, PrP 5UTR inh -4, Sa RN4220 lethal 3.2, Bead autofluor 10240, BJeLR lethal -4, Sa ugtP lethal 6 and Mtb hypoxia inh growth 10.
`CC(C)c1ccc(/C=C/c2ccc(=O)n(C)n2)cc1` gave Mtb hypoxia inh 10, PrP 5UTR inh -20, Sa RN4220 lethal 14, Bead autofluor 4533, BJeLR lethal -1, Sa ugtP lethal 8 and Mtb hypoxia inh growth 5.
For CC(=O)N(C(C)=O)c1nc(-c2ccccc2)cn1/N=C/c1cccc([N+](=O)[O-])c1 the results were PrP 5UTR inh -38, Bead autofluor 3608 and BJeLR lethal 19.
CC1(C)CC(=O)C(C(C2=C(O)CC(C)(C)CC2=O)c2cccs2)C(=O)C1 (stereo unspecified) was read as Mtb hypoxia inh -3, PrP 5UTR inh -17, Sa RN4220 lethal 3.7, Bead autofluor 2571, BJeLR lethal -7, Sa ugtP lethal -1 and Mtb hypoxia inh growth -3.
`Cc1cnc(C(=O)OCC(=O)Nc2sc3c(c2C(N)=O)CCCC3)cn1` gave Mtb hypoxia inh 9, PrP 5UTR inh -5, Sa RN4220 lethal 5.6, Bead autofluor 3811, Sa ugtP lethal 6 and Mtb hypoxia inh growth 5.
For C/C(=N\O)c1ccc(N2C(=O)C3CC=C(Cl)CC3C2=O)cc1 (stereo unspecified) the results were PrP 5UTR inh -45, Bead autofluor 16899* and BJeLR lethal 3.
`CCCCn1c(-c2ccc(Cl)cc2)nc2c(=O)n(C)c(=O)[nH]c21` gave PrP 5UTR inh -1, Sa RN4220 lethal 1.9, Bead autofluor 2677 and Sa ugtP lethal 4.
O=C(CNCc1ccco1)Nc1ccc(N2CCCCCC2)cc1 was read as Mtb hypoxia inh 3, PrP 5UTR inh 83*, Sa RN4220 lethal -0.3, Bead autofluor 4520, BJeLR lethal -5, Sa ugtP lethal 9 and Mtb hypoxia inh growth 10.
For Nc1ncccc1C(=O)OCC(=O)NC1CCCCCC1 the results were Mtb hypoxia inh 14, PrP 5UTR inh -5, Sa RN4220 lethal 7.3, Bead autofluor inconclusive, Sa ugtP lethal 1 and Mtb hypoxia inh growth 9.
For CCc1cc(C(=O)OC)c(NC(=O)CCCC(=O)O)s1 the results were Mtb hypoxia inh 7, PrP 5UTR inh -8, Sa RN4220 lethal 1.4, Bead autofluor inconclusive, BJeLR lethal 12, Sa ugtP lethal 11 and Mtb hypoxia inh growth 11.
`O=C1Nc2ccccc2C12OCCO2` gave Mtb hypoxia inh 10, PrP 5UTR inh -19, Sa RN4220 lethal -0.8, Bead autofluor 8063, BJeLR lethal -11, Sa ugtP lethal 2 and Mtb hypoxia inh growth 3.
`Cc1ccc(CS(=O)(=O)CCC(=O)NC2CC2)cc1` gave Mtb hypoxia inh 3, PrP 5UTR inh -14, Sa RN4220 lethal 2.5, Bead autofluor 11017, BJeLR lethal 1, Sa ugtP lethal 4 and Mtb hypoxia inh growth 2.
CCc1ccc(-c2nc(CS(=O)CC(=O)NCc3ccccc3)c(C)o2)cc1 (stereo unspecified) was read as Mtb hypoxia inh 13, PrP 5UTR inh 7, Sa RN4220 lethal -1.2, Bead autofluor 4882, BJeLR lethal -4, Sa ugtP lethal 2 and Mtb hypoxia inh growth 6.

Next part; the last 3 above are carried over.
`O=C1Nc2ccccc2C12OCCO2` gave Mtb hypoxia inh 10, PrP 5UTR inh -19, Sa RN4220 lethal -0.8, Bead autofluor 8063, BJeLR lethal -11, Sa ugtP lethal 2 and Mtb hypoxia inh growth 3.
`Cc1ccc(CS(=O)(=O)CCC(=O)NC2CC2)cc1` gave Mtb hypoxia inh 3, PrP 5UTR inh -14, Sa RN4220 lethal 2.5, Bead autofluor 11017, BJeLR lethal 1, Sa ugtP lethal 4 and Mtb hypoxia inh growth 2.
CCc1ccc(-c2nc(CS(=O)CC(=O)NCc3ccccc3)c(C)o2)cc1 (stereo unspecified) was read as Mtb hypoxia inh 13, PrP 5UTR inh 7, Sa RN4220 lethal -1.2, Bead autofluor 4882, BJeLR lethal -4, Sa ugtP lethal 2 and Mtb hypoxia inh growth 6.
COc1ccc(CNC(=O)C2CCCN(Cc3nc(-c4cccc(C)c4)oc3C)C2)cc1 (stereo unspecified) was read as Mtb hypoxia inh 5, PrP 5UTR inh -16, Sa RN4220 lethal 8.1, Bead autofluor 2740, BJeLR lethal -4, Sa ugtP lethal 5 and Mtb hypoxia inh growth 4.
Screening CCN1CC2C3C(=O)N(Cc4ccccc4)C(=O)C3[C@](C)(C1=O)N2C(=O)c1ccc(C(F)(F)F)cc1 (stereo partly specified) returned Mtb hypoxia inh 1, Sa RN4220 lethal 1.0, Sa ugtP lethal -2 and Mtb hypoxia inh growth 1.
`C/C(N)=C(/C#N)C(=O)CN1CCCCC1` gave PrP 5UTR inh 3, Bead autofluor 2469 and BJeLR lethal -8.
O=C1Nc2ccccc2C(O)(C(=O)NCc2ccc3c(c2)OCO3)N1c1ccc(Cl)c(Cl)c1 (stereo unspecified) was read as Mtb hypoxia inh 6, PrP 5UTR inh -14, Sa RN4220 lethal 8.6, Bead autofluor 9648, BJeLR lethal 4, Sa ugtP lethal 2 and Mtb hypoxia inh growth 8.
Screening O=C(CCCOc1ccccc1)N1CCN(C(=O)c2ccco2)CC1 returned Mtb hypoxia inh -5, PrP 5UTR inh -43, Sa RN4220 lethal 3.4, Bead autofluor 23020*, BJeLR lethal 1, Sa ugtP lethal 5 and Mtb hypoxia inh growth 3.
For COc1ccc(CCNC(=O)/C=C/c2ccc3ccccc3n2)cc1OC the results were Mtb hypoxia inh 16, PrP 5UTR inh 2, Sa RN4220 lethal -0.3, Bead autofluor 6408, BJeLR lethal 4, Sa ugtP lethal 2 and Mtb hypoxia inh growth 9.
CN(C)C(=O)CCCCCCCCC(=O)N(C)C was read as Mtb hypoxia inh 5, PrP 5UTR inh -24, Sa RN4220 lethal 1.6, BJeLR lethal 3, Sa ugtP lethal 1 and Mtb hypoxia inh growth 8.
`CCOC(=O)COc1ccc2c(c1)c(C(=O)OCC)c(C)n2CC` gave PrP 5UTR inh -4, Sa RN4220 lethal -0.2, Bead autofluor 2162, BJeLR lethal 0 and Sa ugtP lethal -5.
Screening CN(CCCNC(=O)CCc1cn(C)c2ccccc12)C1CCCCC1 returned Mtb hypoxia inh 0, PrP 5UTR inh -14, Sa RN4220 lethal 1.2, Bead autofluor 3826, BJeLR lethal -2, Sa ugtP lethal 3 and Mtb hypoxia inh growth 3.
Screening O=C(Nc1cnccn1)c1cccnc1 returned Mtb hypoxia inh -3, PrP 5UTR inh -19, Sa RN4220 lethal -4.7, Bead autofluor 10723, BJeLR lethal 8, Sa ugtP lethal 0 and Mtb hypoxia inh growth -5.
Screening CC(C)(C)OC(=O)N1CCC2(CC1)C(C#N)=C(N)OC1=C2C(=O)CCC1 returned Mtb hypoxia inh 14, PrP 5UTR inh 0, Sa RN4220 lethal 0.9, Bead autofluor 4497, BJeLR lethal 0, Sa ugtP lethal 7 and Mtb hypoxia inh growth 2.
`CCOC(=O)C=C(OC(=O)c1ccc(OC)cc1)c1ccccc1` gave Mtb hypoxia inh 2, PrP 5UTR inh 5, Sa RN4220 lethal 6.5, Bead autofluor 2876, Sa ugtP lethal 12 and Mtb hypoxia inh growth 2.
For O=C(CN1C(=O)NC2(CCc3ccccc32)C1=O)Nc1cc(C(F)(F)F)ccc1N1CCOCC1 (stereo unspecified) the results were Sa RN4220 lethal 1.8, BJeLR lethal -12 and Sa ugtP lethal -1.
COc1ccc(NC(=O)c2scc(S(=O)(=O)C(C)C)c2N)cc1 was read as Mtb hypoxia inh 3, PrP 5UTR inh -74, Sa RN4220 lethal 3.1, BJeLR lethal -1, Sa ugtP lethal 8 and Mtb hypoxia inh growth 2.
`COc1cccc(CNC(=O)CCCn2nc(C)n3c(cc4sccc43)c2=O)c1` gave Mtb hypoxia inh 2, PrP 5UTR inh -8, Sa RN4220 lethal 1.4, Bead autofluor 5644, BJeLR lethal 2, Sa ugtP lethal 3 and Mtb hypoxia inh growth 2.
For ON=Cc1cn(-c2ccccc2)nc1-c1ccccc1 the results were Mtb hypoxia inh 1, Sa RN4220 lethal 2.1, Sa ugtP lethal 8 and Mtb hypoxia inh growth 2.

Compound activity as filed in PubChem.
